FBW7 activator = FBW7 E3 ligase activators, primary screen, biochemical, AlphaScreen, human | F-box/WD repeat-containing protein 7 (Homo sapiens), Q969H0 | AID 1259310, 2017 | normalized activity (activation), % at 26.1 µM | hit rate 0.13% among 650,000 | AlphaScreen FBW7–phospho-cyclin E peptide binding, activator screen; in the data active = normalized activity above about 1.9%;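 also: purified mutant Fbw7 with reduced substrate affinity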
GPR151 ag = activators of human GPR151, primary screen, cell-based, PathHunter beta-arrestin, luminescence. G-protein coupled receptor 151 (Homo sapiens), Q8TDV0. activation, % at 11.2 µM. PathHunter beta-arrestin GPR151 cells. hit rate 1% among 650,000; in the data active = activation above about 4.9%;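 also: 0% = median of compound wells and 100% = cells with positive control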
Target sequence (Q8TDV0 whole entry, looked up): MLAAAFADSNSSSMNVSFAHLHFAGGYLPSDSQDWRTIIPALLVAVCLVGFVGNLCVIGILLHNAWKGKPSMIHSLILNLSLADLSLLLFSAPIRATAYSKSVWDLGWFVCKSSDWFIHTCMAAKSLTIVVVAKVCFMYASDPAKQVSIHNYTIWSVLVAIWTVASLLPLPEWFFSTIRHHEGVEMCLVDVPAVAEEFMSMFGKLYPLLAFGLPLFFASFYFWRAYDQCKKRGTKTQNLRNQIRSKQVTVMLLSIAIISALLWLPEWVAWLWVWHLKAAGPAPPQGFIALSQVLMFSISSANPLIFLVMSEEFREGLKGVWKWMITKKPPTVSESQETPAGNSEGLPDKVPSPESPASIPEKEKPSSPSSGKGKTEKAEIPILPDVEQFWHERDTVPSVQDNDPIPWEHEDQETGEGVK
Numbers without * were called inactive. Only part of the results is shown, and most or all hits are left out here.

CC1CCc2c(sc(NC(=O)CCC(=O)O)c2C(=O)Nc2ccc(Cl)cc2)C1 (centres undefined) was read as FBW7 activator -0.4 and GPR151 ag 0.9.
Screening CC(C)c1ccc(C(=O)CC2(O)C(=O)N(CC(N)=O)c3ccccc32)cc1 (centres undefined) returned FBW7 activator 0.0 and GPR151 ag 1.3.
For COc1ccccc1-n1c(=O)[nH]c2c(C(N)=O)nc(-c3ccc(Cl)cc3)nc21 the results were FBW7 activator 1.0 and GPR151 ag 1.1.
Screening Cc1ccc(/C=C2/SC(N)=NC2=O)cc1 returned FBW7 activator 0.1 and GPR151 ag -0.6.
`O=C(Nc1ncc([N+](=O)[O-])s1)c1cccc(Cl)c1` gave FBW7 activator -0.1 and GPR151 ag -9.9.
For O=C1NC(=O)/C(=C\c2ccc(OCc3ccccc3Cl)cc2)N1 the results were FBW7 activator -0.3 and GPR151 ag 1.3.
Screening COc1cccc2c1C(=O)c1c(O)c3c(c(O)c1C2=O)C[C@@](O)(C(=O)CO)C[C@@H]3OC1C[C@H](N)[C@H](O)[C@H](C)O1 (some centres undefined) returned FBW7 activator -0.2 and GPR151 ag -1.1.
For Cc1cc(=O)oc2c(I)c(O)ccc12 the results were FBW7 activator 0.0 and GPR151 ag -0.8.
COc1ccccc1-n1c(=O)[nH]c2c(C(N)=O)nc(-c3ccco3)nc21 was read as FBW7 activator 0.0 and GPR151 ag -2.2.
`Cc1cc(/C=C2\SC(=S)N(CC(=O)O)C2=O)c(C)n1-c1ccccc1` gave FBW7 activator 0.1 and GPR151 ag -1.2.

Random excerpt: seven compounds from above.
`O=C(Nc1ncc([N+](=O)[O-])s1)c1cccc(Cl)c1` gave FBW7 activator -0.1 and GPR151 ag -9.9.
For O=C1NC(=O)/C(=C\c2ccc(OCc3ccccc3Cl)cc2)N1 the results were FBW7 activator -0.3 and GPR151 ag 1.3.
COc1ccccc1-n1c(=O)[nH]c2c(C(N)=O)nc(-c3ccco3)nc21 was read as FBW7 activator 0.0 and GPR151 ag -2.2.
For COc1ccccc1-n1c(=O)[nH]c2c(C(N)=O)nc(-c3ccc(Cl)cc3)nc21 the results were FBW7 activator 1.0 and GPR151 ag 1.1.
Screening Cc1ccc(/C=C2/SC(N)=NC2=O)cc1 returned FBW7 activator 0.1 and GPR151 ag -0.6.
For Cc1cc(=O)oc2c(I)c(O)ccc12 the results were FBW7 activator 0.0 and GPR151 ag -0.8.
Screening CC(C)c1ccc(C(=O)CC2(O)C(=O)N(CC(N)=O)c3ccccc32)cc1 (centres undefined) returned FBW7 activator 0.0 and GPR151 ag 1.3.

Returning to the listing, repeating the 2 entries before the break.
COc1ccccc1-n1c(=O)[nH]c2c(C(N)=O)nc(-c3ccco3)nc21 was read as FBW7 activator 0.0 and GPR151 ag -2.2.
`Cc1cc(/C=C2\SC(=S)N(CC(=O)O)C2=O)c(C)n1-c1ccccc1` gave FBW7 activator 0.1 and GPR151 ag -1.2.
Screening CCOc1ccc(-c2nc(C(N)=O)c3[nH]c(=O)n(-c4ccccc4OC)c3n2)cc1 returned FBW7 activator 0.0 and GPR151 ag 0.3.
NC(=S)N/N=C/c1ccc(O)c(O)c1 was read as FBW7 activator -0.2 and GPR151 ag 0.8.
COc1ccc(C2CC(c3ccccc3)=NN2C(=O)CCCC(=O)O)cc1 (centres undefined) was read as FBW7 activator 0.0 and GPR151 ag 3.0.
`COc1cccc(Nc2nc(-c3ccc([N+](=O)[O-])cc3)nc3ccccc23)c1` gave FBW7 activator 0.1 and GPR151 ag -1.1.
For Nc1nonc1-c1nc2ccccc2n1CC(=O)Nc1ccccc1Cl the results were FBW7 activator -0.2 and GPR151 ag -0.4.
For O=C(O)CCC(=O)N(Cc1ccco1)C1CC(=O)N(c2ccc(Cl)cc2)C1=O (centres undefined) the results were FBW7 activator -0.2 and GPR151 ag 0.0.
`O=C(CC1OC(=O)c2ccccc21)c1ccc(F)cc1` (centres undefined) gave FBW7 activator 0.3 and GPR151 ag 0.3.
`CCNC(=O)CNC(=O)OCc1ccccc1` gave FBW7 activator 0.0 and GPR151 ag 0.3.
`Nc1nonc1-c1nc2ccccc2n1CC(=O)Nc1ccc(F)cc1F` gave FBW7 activator 0.1 and GPR151 ag -1.4.
`COc1ccc(/C=C/c2ccc3cccc(O)c3n2)cc1` gave FBW7 activator -0.1 and GPR151 ag -6.3.
`Cc1c(N=Nc2ccc(O)c3ncccc23)c(=O)n(-c2ccccc2)n1C` gave FBW7 activator -0.3 and GPR151 ag 2.5.
